MARV entry inh: inhibitors of Marburg virus binding or cell entry; Marburg virus pseudotyped entry inhibition, cell reporter; control for the full effect not named in the record; about a third of the inactives were read at about 46 µM; Potency, µM (doses to about 37.8 µM), without a hit: top-dose activity change, negative = inhibition, actives largely listed as inhibitors; hit rate 1.8% among 300,000; active = well fitted inhibition curve with a large enough effect; inconclusive = small, poorly fitted or top-dose-only effect, or effect the other way; inactive = flat fitted curve, though single readings scatter; tested in HEK293 cells; about a fifth of its hits are not listed in these tables; note: % is set by controls: 0 for no effect and ±100 for the full control effect; luciferase read-out
SARS PLpro yeast: SARS-CoV PLP inhibition in yeast | S. cerevisiae expressing SARS-CoV PLpro, growth rescue; control for the full effect not named in the record | Potency, µM (highest dose often 32.9 µM), without a hit: at the highest dose activity, positive = growth rescue | hit rate 0.19% among 330,000 | AID 485353; active means well fitted rising curve with a large enough effect; inconclusive means small, poorly fitted or top-dose-only effect; inactive means no such curve, though single readings can be large or run the other way; note: 0% is about no effect; nearly all actives have a fitted effect of over 55% in size; growth read by luminescence after 48 h
Lassa entry inh: blocks Lassa virus binding to or entry into cells. hit rate 1.2% among 300,000. Potency, µM (doses to about 37.9 µM), inactives show at the top dose activity change, negative = inhibition, usual class: inhibitors. Lassa virus pseudotype entry inhibition, cell reporter; control for the full effect not named in the record; active means well fitted inhibition curve with a large enough effect; inconclusive means small, poorly fitted or top-dose-only effect, or effect the other way; inactive means flat fitted curve, though single readings scatter; tested in HEK293 cells; note: % is set by controls: 0 for no effect and ±100 for the full control effect; nearly all actives have a fitted effect of over 50% in size; luciferase read-out
2A StopGo: lowers the luciferase signal of an FMDV 2A StopGo reporter; human cells with a luciferase reporter of 2A StopGo recoding; control for the full effect not named in the record; hit rate 1.2% among 410,000; Potency, µM (series often up to 57.9 µM), for the others: top-dose signal change, negative = less light; active = well fitted falling curve with a large enough effect; inconclusive = small, poorly fitted or top-dose-only effect; inactive = no such curve, though single readings can be large or run the other way; tested in HEK293T cells; note: % is set by controls: 0 for no effect and ±100 for the full control effect; nearly all actives have a fitted effect of over 45% in size; luciferase light after 4 h
RE007 growth inh: less growth of the S. pombe RE007 Vpr strain; S. pombe RE007 Vpr strain, BacTiter-Glo ATP luminescence, 24 h; control for the full effect not named in the record; Potency, µM (top dose mostly 92.2 µM), for the others: at the top dose activity change, negative = less growth; hit rate 0.21% among 360,000; AID 651644; active = well fitted falling curve with a large enough effect; inconclusive = small, poorly fitted or top-dose-only effect; inactive = no such curve, though single readings can be large or run the other way;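 note: % is set by controls: 0 for no effect and ±100 for the full control effect; nearly all actives have a fitted effect of over 50% in size; the assay follows cell death caused by Vpr and the record does not say whether a fall means rescue or toxicity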
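Fission yeast strain RE007, carrying one chromosomally integrated HIV-1 vpr copy, was seeded at OD 0.01 in PMG+AL medium with 23 nL pinned compound. After 24 h at 30 °C and 99% humidity, viability was read by BacTiter-Glo luminescence.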
NS1 inh: inhibitors of influenza NS1 protein function. S. cerevisiae slowed by influenza A NS1, growth recovery by OD600. Potency, µM (top dose mostly 46.1 µM), for the others: at the highest dose activity, positive = more growth. hit rate 0.4% among 270,000; active means well fitted rising curve with a large enough effect; inconclusive means small, poorly fitted or top-dose-only effect; inactive means no such curve, though single readings can be large or run the other way; note: nearly all actives have a fitted effect of over 50% in size
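Read-out: OD600 growth recovery of NS1-expressing budding yeast. Cells grown overnight at 30C in -URA glucose medium, washed, resuspended and diluted 1:100 in 2% galactose assay medium, pH 6.0. Same strain lacking NS1 served as positive control.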
Cruzain inh noDet: blocks cruzain activity in detergent-free assay; purified cruzain, Z-FR-AMC fluorescence, no detergent; hit rate 2.3% among 200,000; Potency, µM, inactives show max response, negative = inhibition, most hits filed as inhibitors;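 note: plate controls were enzyme without inhibitor for no effect and buffer without enzyme for full effect; nearly all actives have a fitted effect of over 40% in size; top concentration of the series not given in the record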
Target sequence (P25779 123-467 limits assumed): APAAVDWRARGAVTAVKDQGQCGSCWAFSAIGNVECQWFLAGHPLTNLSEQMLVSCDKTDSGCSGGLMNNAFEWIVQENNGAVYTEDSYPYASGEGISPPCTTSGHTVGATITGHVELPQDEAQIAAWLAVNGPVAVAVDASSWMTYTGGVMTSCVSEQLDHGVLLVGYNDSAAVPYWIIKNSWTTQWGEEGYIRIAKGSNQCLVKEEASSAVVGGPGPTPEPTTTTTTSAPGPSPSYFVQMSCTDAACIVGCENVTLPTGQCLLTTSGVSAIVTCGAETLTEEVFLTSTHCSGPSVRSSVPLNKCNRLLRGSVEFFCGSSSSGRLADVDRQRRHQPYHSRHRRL
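Detergent-free condition (0.00005% Triton X-100) in acetate buffer pH 5.5 with DTT. 1.5 nM enzyme and compound were pre-mixed 15 min, then 2 uM Z-FR-AMC substrate added; reaction progress from fluorescence change between first and third reads (60 s).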
Cruzain inh Det: inhibitors of Trypanosoma cruzi cruzain with detergent; P25779; Potency, µM, without a hit: max response, negative = inhibition, usual class: inhibitors; purified cruzain, Z-FR-AMC fluorescence, 0.01% Triton; AID 1478; hit rate 0.43% among 200,000;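 note: plate controls were neutral wells for no effect and buffer without enzyme for full effect; nearly all actives have a fitted effect of over 40% in size; top concentration of the series not given in the record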
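Detergent-containing arm of a paired screen for aggregation-based inhibition: 0.01% Triton X-100 present. Cruzain at 1.5 nM cleaved 2 uM Z-FR-AMC at pH 5.5 with 5 mM DTT; AMC fluorescence gain over 60 s measured activity.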
Active calls of the source: *; u = inconclusive; x = not tested or not shown; [ ] = another dose, or the depositor's remark. Unless noted, calls come from the whole dose curve; as a rule, active = well fitted curve in the direction sought with a large enough effect; inconclusive = small, poorly fitted or top-dose-only effect, or another doubt; inactive = no such curve, though single readings can be large; an effect the other way counts as inactive or inconclusive. Potency is the fitted concentration of half-maximal effect.

SMILES	MARV entry inh	SARS PLpro yeast	Lassa entry inh	2A StopGo	RE007 growth inh	NS1 inh	Cruzain inh noDet	Cruzain inh Det
Cc1ccc(OCCSCc2nnc(NC(=O)Nc3cccc(Cl)c3)s2)cc1	u	-5%	u	u	4%	13%	16µM*	-1.5%
CC1CCN(C(=O)COC(=O)c2cc(Cl)cc(Cl)c2N)CC1	u	0%	-13%	5%	-2%	-97%	-2%	-4.5%
C/C(=N\NS(=O)(=O)c1ccc(Cl)cc1)c1ccc(O)cc1	u	-10%	-17%	x	5%	-8%	8%	1.6%
O=C(NNC(=O)c1ccc2[nH]c(=O)c(=O)[nH]c2c1)c1cccc(Br)c1	-22%[46.1 µM]	15%	25%[46.1 µM]	0%	6%	-19%	x	x
CCOc1ccc2nc(NC(=O)c3cnccn3)sc2c1	u	9%	1%	17%	-4%	-8%	-3%	1.2%
COc1ccc(CCNC(=O)c2ccc(NS(=O)(=O)c3ccc4[nH]c(=O)[nH]c4c3)cc2)cc1	0%	-7%	5%	-8%	4%	x	x	x
Cc1cc(O)c(CN2CC=C(c3ccccc3)CC2)cc1C(C)C	u	2%	11%[46.1 µM]	-19%	4%	-1%	x	x
Cc1cccc(-c2nc(CS(=O)CC(=O)N3CCCCC3)c(C)o2)c1 (stereo not drawn)	0%	-2%	x	0%	-18%	-5%	-5%	2.3%
CCN(CC)c1cccc(OC2=NS(=O)(=O)c3ccccc32)c1	-2%	1%	3%	u	-11%	-105%	-3%	2.4%
Cc1ccc(CCNC(=O)CCS(=O)(=O)c2ccc3nc(C)sc3c2)cc1	x	5%	x	-5%	-10%	-1%	x	x
O=C(NCc1cccs1)C1CC(c2ccc(F)cc2)=NO1 (stereo not drawn)	8%[46.1 µM]	0%	-9%	69%[activator]	4%	x	x	x
COc1ccc(NC(=O)CCCN2C(=O)CCC2=O)cc1Cl	u	1%	12%	2%	-5%	4%	-3%	1.0%
Cc1sc(NC(=O)COc2cccc(-n3cnnn3)c2)c(C#N)c1C	u	5%	-8%	3%	-5%	7%	20%	-3.8%
O=C(c1ccc(F)cc1)N1CCCC(c2ccccc2)C1 (stereo not drawn)	23%[46.1 µM]	1%	2%	-24%	28%	-5%	x	x
COc1ccc(OC)c(N(C(=O)c2snc(C(N)=O)c2N)C(C(=O)NCc2ccccc2)c2ccc(O)cc2)c1 (stereo not drawn)	-15%	0%	u	0%	-9%	-46%	x	x
CC(=O)c1cc(-c2ccccc2)n(CCC(=O)NCc2ccc(C)cc2)c1C	x	x	-12%[46.1 µM]	4%	x	x	-1%	-4.5%
CCc1nc(SCC(=O)Nc2ccccc2OC)c2c(C)c(C)sc2n1	x	3%	u	u	2%	-4%	x	x
COC(=O)c1cc(S(=O)(=O)C(C)C)c(S(C)=O)s1 (stereo not drawn)	11µM*	-2%	-2%[46.1 µM]	-18%	-1%	-1%	x	x
COCC(C)NC(=O)c1oc2c(c1C)C1(CCC2)SCCS1 (stereo not drawn)	-1%	-16%	u	10%	19%	-40%	-8%	-1.6%
CC(C)Sc1ccc(C(=O)Nc2ccc(F)cc2F)cn1	u	1%	19%	-8%	6%	-6%	x	x
Cc1cc(N2CCOCC2)c2c(N)c(Br)cc(C)c2n1	-30%[46.1 µM]	-1%	3%	u	-15%	3%	-12%	-1.3%
CCc1cccc(C)c1Nc1c(-c2ccccc2)nc2sccn12	0%[46.1 µM]	x	-22%[46.1 µM]	u	x	x	-3%	-12%
Cn1c(=O)cc(C(=O)N/N=C/c2ccc(F)cc2)[nH]c1=O	2%[46.1 µM]	2%	-12%	21%	-8%	5%	x	x
Cc1cccc(OCc2cc(-c3ccccc3)no2)c1C	x	-7%	x	37%[activator]	-10%	-6%	x	x
CCc1ccc(S(=O)(=O)NCc2cn3cccc(C)c3n2)s1	-25%	2%	-16%	u	5%	1%	5%	4.7%
CCOC(=O)CC1(C)NC(=O)c2c(C)sc(C(=O)OCC)c2N1 (stereo not drawn)	16%	4%	-2%	6%	3%	-7%	6%	-6.2%
CCC(=O)N1CCc2cc(S(=O)(=O)NCCc3ccc(S(N)(=O)=O)cc3)ccc21	x	26%	x	3%	-8%	-13%	x	x
O=C(Cc1ccccc1[N+](=O)[O-])N1CCN(c2ccccc2F)CC1	u	6%	3%	1%	4%	-6%	-2%	-1.0%
COC(=O)c1ccc(NC(=O)COc2cccc3c2OC(C)(C)C3)cc1	-18%	-8%	-9%[46.1 µM]	-28%	11%	x	x	x
O=C(CSc1nnc(-c2ccco2)o1)NCC(=O)c1ccccc1	5%	0%	-10%	x	-12%	10%	-20%	-2.0%
O=[N+]([O-])c1ccc(Oc2ccc(S(=O)(=O)N3CCCCC3)cc2)cc1	u	11%	-9%	u	-7%	10%	-5%	-5.0%
COc1cc(NC(=O)c2nc3cc(C)c(C)cc3n(C)c2=O)cc(OC)c1OC	10%[46.1 µM]	x	8%[46.1 µM]	-4%	x	x	-5%	0.3%
COc1ccc(CCNC(=O)C(=O)NCC(c2cccs2)S(=O)(=O)c2cccs2)cc1 (stereo not drawn)	x	x	u	u	x	x	25%	-4.0%
COc1ccc(CN2CCc3c(c(=O)n4ncc(C(=O)N5CCN(c6ccc(F)cc6)CC5)c4n3C)C2)cc1	x	x	-18%[46.1 µM]	u	x	x	u	-1.8%
CN(C)CCN(CC1CCCN(Cc2ccccc2F)C1)C(=O)Cc1ccc(F)c(F)c1 (stereo not drawn)	x	-3%	x	0%	-10%	-1%	x	x
CCOC(=O)C1=C(c2ccccc2)OC(N)=C(C#N)C1c1cccnc1 (stereo not drawn)	-2%[46.1 µM]	0%	12%	-17%	-11%	x	x	x
Cc1ccc(S(=O)(=O)Nc2cc3c4c(c2)CC(=O)N4CCC3)cc1	-1%	-3%	16%	24%	-4%	x	x	x
O=C(CN(C(=O)CCC(=O)Nc1nccs1)c1ccc2c(c1)OCO2)NCc1ccc(F)cc1	u	-4%	-8%[46.1 µM]	20%	3%	18%	x	x
CSCCC(NC(=O)c1ccc(Cl)cc1Cl)C(=O)NCc1ccncc1 (stereo not drawn)	-13%[46.1 µM]	0%	-22%	2%	2%	x	x	x
Cn1c(SCC(=O)Nc2ccccc2F)nc2c([nH]c3ccccc32)c1=O	x	x	u	25%	x	x	0%	-2.2%

Nothing new here: an excerpt of the list.
SMILES	MARV entry inh	SARS PLpro yeast	Lassa entry inh	2A StopGo	RE007 growth inh	NS1 inh	Cruzain inh noDet	Cruzain inh Det
O=[N+]([O-])c1ccc(Oc2ccc(S(=O)(=O)N3CCCCC3)cc2)cc1	u	11%	-9%	u	-7%	10%	-5%	-5.0%
COc1cc(NC(=O)c2nc3cc(C)c(C)cc3n(C)c2=O)cc(OC)c1OC	10%[46.1 µM]	x	8%[46.1 µM]	-4%	x	x	-5%	0.3%
COc1ccc(CCNC(=O)C(=O)NCC(c2cccs2)S(=O)(=O)c2cccs2)cc1 (stereo not drawn)	x	x	u	u	x	x	25%	-4.0%
COc1ccc(CN2CCc3c(c(=O)n4ncc(C(=O)N5CCN(c6ccc(F)cc6)CC5)c4n3C)C2)cc1	x	x	-18%[46.1 µM]	u	x	x	u	-1.8%
CN(C)CCN(CC1CCCN(Cc2ccccc2F)C1)C(=O)Cc1ccc(F)c(F)c1 (stereo not drawn)	x	-3%	x	0%	-10%	-1%	x	x

(further entries)
SMILES	MARV entry inh	SARS PLpro yeast	Lassa entry inh	2A StopGo	RE007 growth inh	NS1 inh	Cruzain inh noDet	Cruzain inh Det
O=C1C=CN(Cc2ccccc2)CC1	x	-4%	x	-7%	10%	u	x	x
N#Cc1nc(-c2ccc(OCc3ccc(Cl)cc3)cc2)oc1NCCCn1ccnc1	3%	0%	18%	-14%	6%	u	-4%	u
Cc1ccc(-c2oc3ccccc3c(=O)c2O)cc1	x	-14%	x	15%	-11%	-2%	-20%	-5.3%
CCCc1nn2c(=O)cc(COC(=O)C3CCCCC3)nc2s1	x	x	6%[46.1 µM]	17%	x	x	-8%	-6.6%
CSc1nc2sc3c(c2c(=O)[nH]1)CC(C)(C)OC3	14%[46.1 µM]	1%	21%[46.1 µM]	5%	-4%	10%	x	x
CCCN(CCC)S(=O)(=O)c1ccc(C(=O)N2CC3CCC(CC3)C2)cc1	-8%	0%	u	-4%	-4%	-1%	x	x
CCOc1ccc(S(=O)(=O)N2CCN(C(=O)C3CSC4(C)CCC(=O)N34)CC2)cc1 (stereo not drawn)	16%	4%	-22%	4%	8%	x	x	x
CCOC(=O)c1c(NC(=O)CSc2ncn[nH]2)sc(C)c1C	u	0%	1%	2%	-7%	-14%	0%	-10%
Cc1ccc2c(c1Br)/C(=N/N1C(=O)c3ccccc3C1=O)C(=O)N2	-18%	2%	-4%	-7%	10%	6%	-5%	4.3%
C=CCN(C(=O)CCC(=O)Nc1cc(C)on1)C(C(=O)NC1CCCC1)c1ccc(C)cc1 (stereo not drawn)	0%[46.1 µM]	1%	-2%[46.1 µM]	5%	1%	-1%	x	x
CCCCn1c(=NC(=O)C(C)(C)Oc2ccc(Cl)cc2)c(C(=O)OCC)cc2c(=O)n3ccccc3nc21	5%[46.1 µM]	x	23%[46.1 µM]	-20%	x	x	10%	0.4%
C=CCS(=O)(=O)N1CCCC(C(=O)c2cccc(Cl)c2)C1 (stereo not drawn)	-2%[46.1 µM]	0%	x	-17%	2%	-2%	x	x
Cc1cc(NC(=O)CCCC(=O)NCc2ccccc2)no1	-13%[46.1 µM]	0%	-27%[46.1 µM]	-7%	9%	5%	x	x
O=C(Cn1cnc2ccccc21)NCCCN1CCOCC1	6%	2%	0%	5%	6%	-10%	-11%	4.2%
NNC(=O)c1nc[nH]c1C(=O)Nc1ccccc1	x	5%	x	13%	-7%	u	x	x
CCN(CC)c1ccc(C(=O)N/N=C(\C)c2cccnc2)cc1	6%[46.1 µM]	-2%	x	0%	-3%	x	x	x
CCOC(=O)c1ccc(NC(=O)CC(C)n2nc(C)cc2C)cc1 (stereo not drawn)	x	x	20%[46.1 µM]	-14%	x	x	u	-5.3%

From PubChem BioAssay
